Screening data (PubChem BioAssay)
LYP phosphatase: LYP phosphatase inhibitors, primary screen, biochemical, DiFMUP fluorescence, recombinant catalytic domain, 10 µM (AID 606). inhibition, % at 10 µM; hits with a dose series show IC50 in µM. 52,000 tested, under 10 active. Tyrosine-protein phosphatase non-receptor type 22 (Homo sapiens). recombinant LYP catalytic domain, DiFMUP fluorescence; higher % means a stronger effect;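 active means IC50 under 40 µM in the dose-response test; inactive means IC50 of 40 µM or more, or never dose-tested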
HT1080 cytotoxicity: cytotoxicity in HT1080 fibrosarcoma cells, cell-based, fluorescence readout (AID 620); HT1080 viability, fluorescence; higher % means a stronger effect; one-dose cytotoxicity, % at 10 µM; EC50 in µM for titrated hits; 0.42% of 87,000 active;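 further: cells exposed to compound overnight then 4 h with Alamar Blue; 0% = vehicle DMSO and 100% = killing control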
Alkaline phosphatase: human TNAP enzyme inhibitors, biochemical, luminescent (AID 518). Alkaline phosphatase, tissue-nonspecific isozyme (Homo sapiens). purified TNAP enzyme, luminescent substrate readout; higher % means a stronger effect. inhibition, % at 20 µM; hits with a dose series show IC50 in µM. 0.09% of 64,000 active; in the data active means a potency from the dose series; inactive means the rest, 99 in 100 with inhibition below about 22%;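 further: plate controls were vehicle for no effect and reference inhibitor for full effect; many of its hits are not listed in these tables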
Bfl-1 inhibitors: Bfl-1 inhibitors, primary screen, biochemical, fluorescence polarization, FITC-Bid, mouse (AID 432). Bcl-2-related protein A1 (Mus musculus). FITC-Bid BH3 peptide fluorescence polarization displacement; higher % means a stronger effect. one-dose displacement, % at 20 µM; IC50 in µM for titrated hits. 0.02% of 64,000 active; in the data active means a potency from the dose series; inactive means the rest, 99 in 100 with displacement below about 15%; further: strong numbers were not always called active
HPDE-C7K KRASV12: cytotoxicity in KRAS-transformed pancreatic duct cells, primary screen, cell-based, fluorescence, HTS (AID 431); HPDE-C7K KRASV12 cells, Alamar Blue viability, 48 h; higher % means a stronger effect; cytotoxicity, % at 10 µM, or EC50 in µM where a hit was titrated; 1.7% of 63,000 active;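 active means compounds whose percent cytotoxicity in the single-dose primary screen, scaled between solvent and toxic-drug controls, exceeds 50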;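 further: 0% = DMSO solvent wells and 100% = doxorubicin-treated wells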
HPDE-C7 viability: cytotoxicity in HPDE-C7 cells, cell-based, fluorescence, HTS (AID 430); HPDE-C7 pancreatic duct cells viability, fluorescence; higher % means a stronger effect; cytotoxicity, % at 10 µM; hits with a dose series show EC50 in µM; 1.8% of 63,000 active;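 further: cells exposed to compound for 48 hours before viability readout; 0% = vehicle and 100% = reference cytotoxic drug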
Starred values were filed as active, the others as inactive. Unless noted, no stated cut-off is given here; in the data, active means cytotoxicity above about 50%; inactive means the rest. A portion of the library; count on the stated rates, not on these rows.

Preview, four compounds:
COC(=O)c1c(-c2cccs2)csc1NC(=O)c1cccnc1 was read as LYP phosphatase -23%, HT1080 cytotoxicity -12%, Alkaline phosphatase 2%, Bfl-1 inhibitors -6%, HPDE-C7K KRASV12 23% and HPDE-C7 viability 17%.
Screening c1coc(-c2nnc3n2C2(CCCC2)Cc2ccccc2-3)c1 returned LYP phosphatase 0%, HT1080 cytotoxicity -4%, Alkaline phosphatase 8%, Bfl-1 inhibitors -7%, HPDE-C7K KRASV12 -22% and HPDE-C7 viability -18%.
`O=C(C1CCCCC1)N1CCCn2c1nc1ccccc12` gave LYP phosphatase 4%, HT1080 cytotoxicity 3%, Alkaline phosphatase 8%, Bfl-1 inhibitors -2%, HPDE-C7K KRASV12 6% and HPDE-C7 viability -4%.
`CCOC(=O)c1ccc(NC(=O)CSCc2ccco2)cc1` gave LYP phosphatase 14%, HT1080 cytotoxicity -9%, Alkaline phosphatase 10%, Bfl-1 inhibitors -4%, HPDE-C7K KRASV12 -7% and HPDE-C7 viability -1%.

The whole of this part, from the first entry:
COC(=O)c1c(-c2cccs2)csc1NC(=O)c1cccnc1 was read as LYP phosphatase -23%, HT1080 cytotoxicity -12%, Alkaline phosphatase 2%, Bfl-1 inhibitors -6%, HPDE-C7K KRASV12 23% and HPDE-C7 viability 17%.
Screening c1coc(-c2nnc3n2C2(CCCC2)Cc2ccccc2-3)c1 returned LYP phosphatase 0%, HT1080 cytotoxicity -4%, Alkaline phosphatase 8%, Bfl-1 inhibitors -7%, HPDE-C7K KRASV12 -22% and HPDE-C7 viability -18%.
`O=C(C1CCCCC1)N1CCCn2c1nc1ccccc12` gave LYP phosphatase 4%, HT1080 cytotoxicity 3%, Alkaline phosphatase 8%, Bfl-1 inhibitors -2%, HPDE-C7K KRASV12 6% and HPDE-C7 viability -4%.
`CCOC(=O)c1ccc(NC(=O)CSCc2ccco2)cc1` gave LYP phosphatase 14%, HT1080 cytotoxicity -9%, Alkaline phosphatase 10%, Bfl-1 inhibitors -4%, HPDE-C7K KRASV12 -7% and HPDE-C7 viability -1%.
`Clc1ccc(C(c2nnnn2C2CCCCC2)N(Cc2cccnc2)Cc2ccco2)cc1` (stereo not drawn) gave LYP phosphatase 15%, HT1080 cytotoxicity -4%, Alkaline phosphatase 8%, Bfl-1 inhibitors -5%, HPDE-C7K KRASV12 -9% and HPDE-C7 viability -12%.
Screening CCOc1ccc(C2CC(c3ccc(CC)cc3)Nc3nc(N)nn32)cc1 (stereo not drawn) returned LYP phosphatase 7%, HT1080 cytotoxicity 3%, Alkaline phosphatase 8%, Bfl-1 inhibitors -2%, HPDE-C7K KRASV12 1% and HPDE-C7 viability 9%.
Screening CC12CC(NC(=O)N1Cc1ccccc1)c1ccccc1O2 (stereo not drawn) returned HT1080 cytotoxicity -9%, Alkaline phosphatase 14%, Bfl-1 inhibitors -3%, HPDE-C7K KRASV12 -16% and HPDE-C7 viability -13%.
`CCCN(CCC)CCNC(=O)CS(=O)Cc1nc(-c2ccc(C)cc2)oc1C` (stereo not drawn) gave HT1080 cytotoxicity -3%, Alkaline phosphatase 2%, Bfl-1 inhibitors -4%, HPDE-C7K KRASV12 2% and HPDE-C7 viability -1%.
Cc1ccc(-c2nc(N)n(C(=O)c3cccnc3)n2)cc1 was read as LYP phosphatase -19%, HT1080 cytotoxicity 5%, Alkaline phosphatase 18%, Bfl-1 inhibitors -7%, HPDE-C7K KRASV12 1% and HPDE-C7 viability -14%.
`COC(=O)CSC1=C(C#N)C(c2ccc(C(C)C)cc2)CC(=O)N1` (stereo not drawn) gave LYP phosphatase 6%, Alkaline phosphatase -6%, Bfl-1 inhibitors 2%, HPDE-C7K KRASV12 -5% and HPDE-C7 viability -4%.
For CSc1ccc(-c2c(C#N)c(N)nc3c2c(C)nn3-c2ccccc2)cc1 the results were HT1080 cytotoxicity -6%, Alkaline phosphatase 17%, Bfl-1 inhibitors -4%, HPDE-C7K KRASV12 35% and HPDE-C7 viability 31%.
Screening CC(C)c1nnc(NC(=O)C2CCCN2S(=O)(=O)c2ccc(Cl)cc2)s1 (stereo not drawn) returned LYP phosphatase 12%, HT1080 cytotoxicity -4%, Alkaline phosphatase 5%, Bfl-1 inhibitors 0%, HPDE-C7K KRASV12 -7% and HPDE-C7 viability -2%.
CCCc1nnc(NC(=O)CCC(=O)O)s1 was read as LYP phosphatase 9%, HT1080 cytotoxicity -4%, Alkaline phosphatase 6%, Bfl-1 inhibitors 2%, HPDE-C7K KRASV12 -2% and HPDE-C7 viability -4%.
`CC(C)Cn1c(NCCN(C)C)nc2c1c(=O)[nH]c(=O)n2C` gave LYP phosphatase 8%, HT1080 cytotoxicity -7%, Alkaline phosphatase 9%, Bfl-1 inhibitors 0%, HPDE-C7K KRASV12 -5% and HPDE-C7 viability 0%.
CCC(c1nnc(SCC(=O)Nc2nnc(-c3ccccc3)o2)o1)N(C)C (stereo not drawn) was read as LYP phosphatase -4%, HT1080 cytotoxicity 0%, Alkaline phosphatase 2%, Bfl-1 inhibitors -7%, HPDE-C7K KRASV12 2% and HPDE-C7 viability -4%.
Screening COc1ccc(NC(=O)C2CCCN2S(=O)(=O)c2ccc3c(c2)CCC(=O)N3)cc1 (stereo not drawn) returned LYP phosphatase 11%, HT1080 cytotoxicity -4%, Alkaline phosphatase 0%, Bfl-1 inhibitors 4%, HPDE-C7K KRASV12 6% and HPDE-C7 viability 1%.
For Cc1cc(C)cc(OCC(=O)NCC2CCCO2)c1 (stereo not drawn) the results were LYP phosphatase 0%, Alkaline phosphatase 7%, Bfl-1 inhibitors -1%, HPDE-C7K KRASV12 -3% and HPDE-C7 viability -3%.
`O=C(NC1CCCCC1)Sc1ccc(Cl)cc1` gave LYP phosphatase 0%, HT1080 cytotoxicity -8%, Alkaline phosphatase 1%, Bfl-1 inhibitors 0%, HPDE-C7K KRASV12 -15% and HPDE-C7 viability -26%.
`COc1ccc(C(=O)N2CCOCC2)cc1Br` gave LYP phosphatase 0%, HT1080 cytotoxicity -4%, Alkaline phosphatase 11%, Bfl-1 inhibitors 1%, HPDE-C7K KRASV12 -1% and HPDE-C7 viability -14%.
`CS(=O)(=O)N(CC(=O)N1CCN(c2ccccc2)CC1)c1cc(C(F)(F)F)ccc1Cl` gave LYP phosphatase 12%, Alkaline phosphatase 11%, Bfl-1 inhibitors 0%, HPDE-C7K KRASV12 -1% and HPDE-C7 viability -12%.
`Cc1ccc2nc(SCC(=O)O)nc(C)c2c1` gave LYP phosphatase -1%, Alkaline phosphatase 18%, Bfl-1 inhibitors -4%, HPDE-C7K KRASV12 -15% and HPDE-C7 viability -13%.
O=C(OCCN1C(=O)c2ccccc2C1=O)c1ccc(S(=O)(=O)N2CCCCCC2)cc1 was read as HT1080 cytotoxicity -4%, Alkaline phosphatase 5%, Bfl-1 inhibitors 2%, HPDE-C7K KRASV12 -7% and HPDE-C7 viability -6%.
For CCCCSc1nnc([C@@H](NC(=O)OC(C)(C)C)C(C)C)o1 the results were HT1080 cytotoxicity -11%, Alkaline phosphatase 7%, Bfl-1 inhibitors -1%, HPDE-C7K KRASV12 -14% and HPDE-C7 viability -8%.
`CCOC(=O)c1[nH]c(C)c(C(=O)OCC(=O)N2CCCCC2C)c1C` (stereo not drawn) gave LYP phosphatase 1%, HT1080 cytotoxicity -5%, Alkaline phosphatase 7%, Bfl-1 inhibitors 1%, HPDE-C7K KRASV12 1% and HPDE-C7 viability 0%.
`CCOC(=O)c1c(C)n(C)c2cc(Br)c(C(=O)OC)cc12` gave HT1080 cytotoxicity 0%, Alkaline phosphatase 6%, Bfl-1 inhibitors -7%, HPDE-C7K KRASV12 6% and HPDE-C7 viability 10%.
For Cc1cc(OCCNCCO)cc(C)c1Cl the results were LYP phosphatase -1%, HT1080 cytotoxicity 7%, Alkaline phosphatase 4%, Bfl-1 inhibitors -10%, HPDE-C7K KRASV12 21% and HPDE-C7 viability 8%.
For Cn1c(=O)n(Cc2ccco2)c(=N)c2c3c(sc21)CCC3 the results were LYP phosphatase -6%, HT1080 cytotoxicity 14%, Alkaline phosphatase 6%, Bfl-1 inhibitors 9%, HPDE-C7K KRASV12 6% and HPDE-C7 viability 11%.
For COC(=O)C1C(=O)c2c([nH]c(C(=O)OC3CCCCC3)c2C)CC1C (stereo not drawn) the results were LYP phosphatase -2%, HT1080 cytotoxicity -7%, Alkaline phosphatase 2%, Bfl-1 inhibitors -5%, HPDE-C7K KRASV12 -10% and HPDE-C7 viability -19%.
Screening Cc1cnc(C(=O)Nc2ccccc2-n2cccc2)cn1 returned LYP phosphatase -5%, HT1080 cytotoxicity -5%, Alkaline phosphatase 16%, Bfl-1 inhibitors 0%, HPDE-C7K KRASV12 -9% and HPDE-C7 viability -22%.
For CCn1ccc(C(=O)Oc2ccc(C(C)C)cc2)n1 the results were LYP phosphatase 7%, HT1080 cytotoxicity -4%, Alkaline phosphatase 14%, Bfl-1 inhibitors -10%, HPDE-C7K KRASV12 -8% and HPDE-C7 viability -3%.
CCN(CC)S(=O)(=O)c1ccc(NC(=O)C2COc3ccccc3O2)cc1 (stereo not drawn) was read as LYP phosphatase -5%, HT1080 cytotoxicity 1%, Alkaline phosphatase 6%, Bfl-1 inhibitors 3%, HPDE-C7K KRASV12 -7% and HPDE-C7 viability -1%.
`O=C(c1ccco1)N1CCN(c2ccc(Cl)cc2)CC1` gave LYP phosphatase 7%, HT1080 cytotoxicity 1%, Alkaline phosphatase 11%, Bfl-1 inhibitors -3%, HPDE-C7K KRASV12 -12% and HPDE-C7 viability -13%.
`COc1cc2cc(C(c3nnnn3C(C)(C)C)N3CCc4ccccc4C3)c(=O)[nH]c2cc1OC` (stereo not drawn) gave HT1080 cytotoxicity 10%, Alkaline phosphatase 2%, Bfl-1 inhibitors 1%, HPDE-C7K KRASV12 6% and HPDE-C7 viability 2%.
`Cc1c(C(=O)O)[nH]c2c1C(=O)CC(c1ccc(Cl)cc1)C2` (stereo not drawn) gave LYP phosphatase 5%, HT1080 cytotoxicity -4%, Alkaline phosphatase 3%, Bfl-1 inhibitors 3%, HPDE-C7K KRASV12 2% and HPDE-C7 viability 2%.
For COc1ccc(N2CCN(C(=O)c3ccc(C)cc3Cl)CC2)cc1 the results were LYP phosphatase 9%, HT1080 cytotoxicity 6%, Alkaline phosphatase 5%, Bfl-1 inhibitors 1%, HPDE-C7K KRASV12 0% and HPDE-C7 viability -7%.
`CCCCn1nnnc1SCC(=O)Nc1cccc(C)n1` gave LYP phosphatase 16%, HT1080 cytotoxicity 0%, Alkaline phosphatase 13%, Bfl-1 inhibitors 2%, HPDE-C7K KRASV12 7% and HPDE-C7 viability -8%.
COC(=O)/C=c1\sc2n(c1=O)C(C)=CC(C)(C)N=2 was read as HT1080 cytotoxicity 5%, Alkaline phosphatase 7%, Bfl-1 inhibitors -2%, HPDE-C7K KRASV12 -28% and HPDE-C7 viability -21%.
CCN(CC)S(=O)(=O)c1ccc(NC(=O)c2c(-c3ccccc3)noc2C)cc1 was read as LYP phosphatase 1%, HT1080 cytotoxicity 3%, Alkaline phosphatase 5%, Bfl-1 inhibitors 4%, HPDE-C7K KRASV12 2% and HPDE-C7 viability -5%.
Screening Cn1c(N)c(C(=O)COC(=O)Cc2ccsc2)c(=O)n(C)c1=O returned LYP phosphatase 7%, HT1080 cytotoxicity 0%, Alkaline phosphatase 5% and Bfl-1 inhibitors -4%.
For Nc1nnc(SCCOc2ccc(Br)cc2)s1 the results were HT1080 cytotoxicity -7%, Alkaline phosphatase 6%, Bfl-1 inhibitors -5%, HPDE-C7K KRASV12 -18% and HPDE-C7 viability -9%.
For O=C(Nc1cccc(F)c1)C1CCCN1S(=O)(=O)c1cccc2cccnc12 (stereo not drawn) the results were LYP phosphatase 5%, HT1080 cytotoxicity -6%, Alkaline phosphatase 6%, Bfl-1 inhibitors 10%, HPDE-C7K KRASV12 9% and HPDE-C7 viability 5%.
N#CC1=C(N)Oc2n[nH]c(-c3cccs3)c2C1c1ccoc1 (stereo not drawn) was read as LYP phosphatase 7%, HT1080 cytotoxicity -3%, Alkaline phosphatase 11%, Bfl-1 inhibitors 9%, HPDE-C7K KRASV12 2% and HPDE-C7 viability -2%.
